HPGD inh: qHTS Assay for Inhibitors of HPGD (15-Hydroxyprostaglandin Dehydrogenase) | actives 4.3% (n = 150,000) | Potency, µM, for the others: at the highest dose activity change, negative = inhibition, hits mostly inhibitors | 15-hydroxyprostaglandin dehydrogenase [NAD(+)] (Homo sapiens), P15428 | purified HPGD, NADH fluorescence kinetic, PGE2 substrate | AID 894, 2007; active = well fitted inhibition curve with a large enough effect (not every such curve was filed as active); inconclusive = small, poorly fitted or top-dose-only effect, or another doubt; inactive = no such curve, though single readings can be large or run the other way;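 further: top concentration of the series not given in the record; plate controls included wells without enzyme; inactives centre near -10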
Target sequence (P15428 whole entry, looked up): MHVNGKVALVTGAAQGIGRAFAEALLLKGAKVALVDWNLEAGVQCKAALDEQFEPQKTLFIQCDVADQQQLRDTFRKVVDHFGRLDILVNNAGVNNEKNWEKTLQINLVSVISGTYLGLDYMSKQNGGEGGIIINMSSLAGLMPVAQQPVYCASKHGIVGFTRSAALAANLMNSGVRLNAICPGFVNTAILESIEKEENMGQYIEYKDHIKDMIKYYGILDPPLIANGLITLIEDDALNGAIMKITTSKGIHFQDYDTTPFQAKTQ
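NADH formation kinetics: reaction with 30 uM PGE2 and 1 mM NAD+ (final), 20 nM enzyme, Tris-HCl pH 8 with Tween 20, after 15 min compound preincubation at room temperature. Fluorescence change, last versus first of five reads.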
An asterisk follows results filed as active; ? = inconclusive; & = joins results of further samples. On the % scale 0 is the no-effect control and ±100 the full control effect; potency means the concentration at half of the fitted maximal effect.

SMILES	HPGD inh
CC(NC(=O)OCc1ccccc1)C(=O)Oc1cc2oc(=O)cc(-c3ccccc3)c2cc1Cl (stereo not given)	?
C=C1C2(C(=O)NCc3ccco3)CCC(C2)C1(C)C (stereo not given)	25.1µM*
CCN(CC)S(=O)(=O)c1ccc2[nH]cc(C(=O)NCCCN3CCCCC3C)c(=O)c2c1 (stereo not given)	?
COc1ccc(NC(=O)NCc2cccnc2)cc1OC	-2.7%
O=C(NC1CCCCC1)C(c1ccccc1)N(C(=O)Cc1ccsc1)c1ccccc1 (stereo not given)	-5.5%
NS(=O)(=O)c1ccc(CCNC(=O)CN2CCN(c3ccccc3O)CC2)cc1	-4.1%
Cc1ccc(S(=O)(=O)N2CCN(C(=O)CCC(=O)N3CCc4ccccc43)CC2)cc1	-1.6%
CCCn1c(C)cc(=O)c2cc(NC(=O)c3cnccn3)ccc21	-6.1%
O=C(COC(=O)c1cc2ccccc2o1)c1ccccc1	-17.7%
CCOC(=O)c1c(NC(=O)CSc2nnc(Cc3csc(N)n3)n2C)sc(C)c1C	-24.4%
Cc1ccccc1-n1c(-c2ccco2)n[nH]c1=S	?
CCNc1ncc2nc(CCc3ccccc3)c(=O)n(C)c2n1	?
O=C(CN(Cc1ccccc1)C(=O)CCC(=O)Nc1ccccn1)NCc1ccco1	-7.4%
O=C(Cc1cccc2ccccc12)NNC(=O)Nc1cccc(Cl)c1	-8.6%
COc1ccc(NC(=O)c2c3c(nc4ccccc24)CCC3)cc1	-9.2%
Cc1ccc(CN2C(=O)CCC2C(=O)NCc2ccco2)cc1 (stereo not given)	-2.8%
O=C1Nc2cc(Cl)c(Cl)cc2N(O)N1c1cccc(Cl)c1	-4.4%
Cc1cc(C(=O)CSc2nnc(-c3ccccc3)n2-c2ccccc2)c(C)n1-c1ncn[nH]1	?
O=C(N/N=C/c1ccc(Br)cc1)c1ccccc1-n1cccc1	-13.8%
CSC1=NC2(CC(c3ccccc3)Oc3cc(O)ccc32)CC(C)(C)N1 (stereo not given)	-4.0%
CSCCC(NC(=O)CCN1C(=O)c2ccccc2C1=O)C(=O)O (stereo not given)	-12.9%
COc1cccc(-c2ccc(C#N)c(OC(=O)c3c(Cl)cccc3Cl)n2)c1	?
CCOc1ccc(N=C2NC(=O)S/C2=C\c2ccc(N(C)C)cc2)cc1	-11.4%
c1ccc(-c2noc(-c3cccc4ccccc34)n2)nc1	?
Cn1c(N)c(C(=O)COC(=O)CN2C(=O)c3ccccc3C2=O)c(=O)n(C)c1=O	2.2%
O=C(O)CSc1nnc(CNc2cccc(C(F)(F)F)c2)n1Cc1ccco1	-8.8%
C=CCNCCOc1ccccc1-c1ccccc1	-2.9%
Nc1ccccc1NC(=O)c1ccccc1N	?
CCOc1cc(CNc2ccc(OC)cc2)cc(Br)c1OCC(=O)NC(C)(C)C	-8.9%
Cc1ccc2nc(Nc3ccccc3O)nc(-c3ccccc3)c2c1	-6.1%
O=C(CSc1nnc(-c2cccc(S(=O)(=O)N3CCCCC3)c2)o1)c1ccc[nH]1	-20.7%
CCOc1ccccc1Nc1ncccc1C(=O)N1CCCC1	-13.2%
Cc1c(NC(=O)C2(c3ccccc3)CCOCC2)c(=O)n(-c2ccccc2)n1C	-0.7%
COc1ccc(S(=O)(=O)Nc2ccccc2OC)cc1NC(=O)Cc1cccs1	-6.5%
N=c1n(-c2ccccc2)c(O)cc(=O)n1-c1ccccc1	-6.4%
CCOc1ccc(-n2c(Cc3cc(=O)[nH]c(=O)[nH]3)nnc2SCC)cc1	-16.9%
COc1ccccc1Oc1ccc(N/C=C2/CCCC2=O)cc1	-14.7%
O=C1CC(c2ccccc2)n2nc(NC(=O)c3ccccn3)nc2N1 (stereo not given)	-6.7%
CCCCN(CCCC)S(=O)(=O)c1ccc(OC)c2ncccc12	-3.9%
N#CC1=C(Nc2ccccc2)SC=C(c2ccc(Cl)c(Cl)c2)N=C1N1CCOCC1	-6.8%
Cc1cc2c(n1-c1ccc(Br)cc1)CC(C)(C)CC2=O	-2.5%
CC(C)C(=O)NC(NC(=S)Nc1cccc2cccnc12)C(Cl)(Cl)Cl (stereo not given)	-4.2%
O=C(NCc1cc(C(F)(F)F)cc(C(F)(F)F)c1)C1CC(c2c(Cl)cccc2Cl)=NO1 (stereo not given)	-12.5%
CN1CCN(C(=O)c2ccc(CN3CCOCC3)cc2)CC1	-19.6%
COc1ccc(Cc2nnc(Nc3ccc(C)cc3C)[nH]c2=O)cc1	0.3%

Fetched by compound from above, three records:
SMILES	HPGD inh
COc1ccc(S(=O)(=O)Nc2ccccc2OC)cc1NC(=O)Cc1cccs1	-6.5%
COc1cccc(-c2ccc(C#N)c(OC(=O)c3c(Cl)cccc3Cl)n2)c1	?
C=CCNCCOc1ccccc1-c1ccccc1	-2.9%

As a working copy, part of the list above:
SMILES	HPGD inh
O=C(NCc1cc(C(F)(F)F)cc(C(F)(F)F)c1)C1CC(c2c(Cl)cccc2Cl)=NO1 (stereo not given)	-12.5%
CN1CCN(C(=O)c2ccc(CN3CCOCC3)cc2)CC1	-19.6%
COc1ccc(Cc2nnc(Nc3ccc(C)cc3C)[nH]c2=O)cc1	0.3%

Three entries out of the list, ordered by molecular weight, ascending.
SMILES	HPGD inh
CCCCN(CCCC)S(=O)(=O)c1ccc(OC)c2ncccc12	-3.9%
O=C(CSc1nnc(-c2cccc(S(=O)(=O)N3CCCCC3)c2)o1)c1ccc[nH]1	-20.7%
N#CC1=C(Nc2ccccc2)SC=C(c2ccc(Cl)c(Cl)c2)N=C1N1CCOCC1	-6.8%

The list continues:
SMILES	HPGD inh
Cc1nn(-c2ncc(C(F)(F)F)cc2Cl)c(=O)n1-c1ccccc1Cl	-1.0%
CCOC(=O)c1c(C)nc2c(c1-c1cc(OC)c(OC)c(OC)c1)C(=O)c1ccccc1-2	-4.4%
O=C(Nc1ccccn1)NC12CC3CC(CC(C3)C1)C2	0.6%
O=c1c(-c2ccccc2)nc2cnc(N3CCNCC3)nc2n1C1CC1	?
COc1cc(C(=O)N/N=C/c2cc([N+](=O)[O-])cs2)cc(OC)c1OC	-7.6%
Cc1cccc(N(C)C(=O)CCS(=O)(=O)c2cccc3nonc23)c1	-7.6%
C1CSC2(N1)C1CC3CC2CC(C1)C31NCCS1 (stereo not given)	5.1%
CCOC(=O)C1=C(O)C(=O)N(c2ccc(S(N)(=O)=O)cc2)C1c1ccc(OC)cc1 (stereo not given)	-16.3%
COc1ccc(NC(=O)CSc2nnc(Cn3cnc4ccccc43)n2C)cc1	2.6%
COc1cc(C2=NOC(C(=O)NCc3ccccn3)C2)cc(OC)c1OC (stereo not given)	-5.1%
CCOc1cc(N2CCOCC2)c(OCC)cc1NC(=O)COC(=O)c1cc2ccccc2cc1O	-6.0%
COC(=O)c1ccc(C(NC(=O)OCc2ccccc2)/C(C)=C/[C@@H](C)C(=O)NCc2ccc(OC)c(OC)c2)cc1 (stereo not given in full)	-9.7%
COc1ccc(CCCC(=O)NCc2ccccc2)cc1C	15.8µM*
Cc1nn(-c2ccccc2)c(N2CCCC2)c1/C=N/NC(=O)c1cc(-c2cccnc2)nc2ccccc12	-6.9%
C[C@@H](CC(=O)O)[C@@H](N)C(=O)O	1.7%
COc1ccc(N(CC(=O)N2CCc3ccccc32)S(=O)(=O)c2c(C)n[nH]c2C)cc1	-1.6%
CCc1ccc(-c2cc(C(=O)Nn3cnnc3)c3ccccc3n2)cc1	-22.4%
CC1CN=C2C(C(=O)Nc3ccccc3)=C(O)CC(c3ccccc3)N21 (stereo not given)	-13.5%
O=C(Nc1ccc2c(c1)CCC2)c1ccccc1F	-28.8%
O[C@H](c1cc(C(F)(F)F)nc2c(C(F)(F)F)cccc12)[C@H]1CCCCN1	5.6%
Cc1sc2c(c1C)c(=O)n(-c1ccc(Cl)cc1)c(=O)n2Cc1cc(=O)n2ccccc2n1	-7.0%
COc1cccc(CNCc2ccc(SC)cc2)c1OC	-5.7%
NS(=O)(=O)c1ccc(NC(=S)NC(=O)c2ccc(-c3ccccc3)cc2)cc1	-29.0%
COc1cccc2cc(C(=O)C3=C(O)C(=O)N(CCCN(C)C)C3c3ccncc3)oc12 (stereo not given)	-14.6%
O=C(O)CSSCC(=O)O	-3.4%
COc1cccc(-c2cc(C(=O)N3CCCCC3C)no2)c1 (stereo not given)	15.8µM*
Cc1[nH]c(=O)[nH]c(=O)c1S(=O)(=O)NCC12CC3CC(CC(C3)C1)C2	4.1%
NC(=O)CC[C@@H]1NC(=O)[C@H](Cc2ccccc2)NC(=O)[C@H](Cc2ccc(O)cc2)NC(=O)[C@@H](N)CSSC[C@@H](C(=O)N2CCC[C@H]2C(=O)N[C@@H](CCCN=C(N)N)C(=O)NCC(N)=O)NC(=O)[C@H](CC(N)=O)NC1=O	-3.1%
COC(=O)c1cc(Cl)c(N)cc1OC	-10.2%
O=C(Nc1ccccc1Cl)c1ccccc1Cl	28.2µM*
Cc1ccc2c(c1)c(=O)c(Br)c(C)n2Cc1ccccc1	-1.6%
O=C(Oc1c(-c2ccccc2)oc2ccccc2c1=O)c1ccccc1	-13.9%
Cc1[nH]nc2c1C(c1ccc(Cl)cc1)C(C#N)=C(N)O2 (stereo not given)	-11.6%
COCCNS(=O)(=O)c1ccc(-c2ccc(S(=O)(=O)NCCOC)cc2)cc1	11.2µM*
O=S1(=O)CCN2C(c3ccc4c(c3)CCCC4)=CSC2=N1	-4.9%
Cc1ccc(/C(N)=N/OC(=O)c2cc(-c3ccccc3)nc3ccccc23)cc1	-9.0%
CCOC(=O)c1ccc2c(c1)N(CC(=O)N1CCCC1)C(=O)C(C)(C)O2	-4.9%
N[C@H](C(=O)O)C1[C@H](C(=O)O)[C@H]1C(=O)O (stereo not given in full)	-4.9%
Cc1ccc(C(=O)OCC(=O)Nc2cc(F)ccc2F)cc1NC(=O)c1ccco1	-16.7%
N#CC(C(=O)NC1CCCCC1)=C1CCCCCC1	-11.2%
COCCSc1nc2c(c(=O)[nH]c(=O)n2C)n1Cc1cccc(C)c1	?
Cc1ccc(S(=O)(=O)Nc2cc(C(F)(F)F)ccc2N2CCOCC2)c(C)c1	-19.1%
O=C(NC1CCCCC1)c1ccc(CN2CCOCC2)cc1	-8.1%
COc1cccc(C=NC=Nc2cccc(OC)c2)c1	-10.8%
CCCc1nnc(SCC(=O)N2CCOCC2)n1Cc1ccco1	-2.5%
C=CCn1c(SCC(=O)Nc2ccc3c(c2)OCO3)nnc1-c1ccccc1OC	-3.5%
COCCN1C=C2C(=O)C(C)(OC(=O)CCC(=O)OC)C(=O)C=C2C=C1C1CC1 (stereo not given)	-10.5%
Cc1ccccc1-c1nc2ccccc2c(=O)n1/N=C/c1ccccc1[N+](=O)[O-]	22.4µM*
CCOC(=O)NC(CC(=O)O)c1ccc(OC)cc1 (stereo not given)	2.5%
CCC1CCC(c2nnc(-c3ccc(Br)cc3)o2)CC1 (stereo not given)	-4.7%
CCOC(=O)C(C)n1ncn2cccc2c1=O (stereo not given)	-4.0%
COCCn1cnnc1SCC(=O)Nc1cccc(S(=O)(=O)N2CCCCCC2)c1	-4.4%
CCOC(=O)c1sc(-c2ccc(F)cc2)cc1NC(=O)Nc1ccccc1OC	?
Cc1ccc(C(=O)C2Oc3ccccc3C3CC(c4ccc(C)cc4)=NN23)cc1 (stereo not given)	-6.4%
Cc1ccccc1N1C(=O)C(Cl)=C(N2CCCCCC2)C1=O	?
C[C@@H](COc1ccccc1)N(CCCl)Cc1ccccc1	1.8%
O=C(CN1C(=O)CC(c2ccco2)Sc2ccccc21)NCC1CCCO1 (stereo not given)	-9.5%
CC(=O)N=c1ncn(CC(COC(C)=O)OC(C)=O)c2nc[nH]c12 (stereo not given)	-5.7%
O=C(Nc1cccc(F)c1)NC1CCCCC1	-19.1%
CCCCN1C(=O)NC(NS(=O)(=O)c2ccc(N)cc2)(C(F)(F)F)C1=O (stereo not given)	2.7%
Further compounds follow:
SMILES	HPGD inh
CC1CCN(S(=O)(=O)c2cccc(C(=O)Oc3ccc([N+](=O)[O-])cc3)c2)CC1	-8.4%
O=C(Nc1ccccc1F)c1ccc(Br)o1	-18.6%&-6.7%
Cc1cc2ccccc2n1CCNC(=O)c1cccs1	-1.5%
CCOC(=O)N1CCN(C(=O)CSCC(=O)Nc2nc(-c3cccs3)cs2)CC1	3.8%
O=C(O)CSc1nc(C(F)(F)F)cc(=O)n1-c1ccccc1	-8.5%
Cc1cccc(NC(=O)CC2c3ccccc3Oc3ccccc32)c1	-8.3%
C=CCc1cccc2cc(C(=O)O)c(=O)oc12	-15.9%
CCCN(Cc1ccc(N(CC)CC)cc1)CC1CC1	-2.4%
COc1ccc(CCNC(=O)CSc2nc3ccccc3o2)cc1OC	-5.2%
CC(C)Cc1nc(C(N)=O)c2[nH]c(=O)n(-c3ccc(F)cc3)c2n1	?
O=C(O)c1ccc(C(=O)c2ccccc2)c(C(=O)O)c1	-2.1%
O=C(N/N=C/c1ccccn1)C12CC3CC(CC(C3)C1)C2	-17.9%
COc1ccc(N2CCN(C(=O)c3cc4c(-c5cccc(OC)c5)nn(C)c4s3)CC2)cc1	-11.0%
CCc1ccccc1NC(=O)CN1CCC(NC(=O)COC)CC1	-1.6%
CCC(C)NS(=O)(=O)c1ccc(S(=O)(=O)N2CCCC3(CCCCC3)C2)cc1 (stereo not given)	-9.3%
CC(NC(=O)c1ccc(F)cc1)c1ccc(F)cc1 (stereo not given)	-14.7%
CCCC[C@@H]1C[C@H]1C(NC(=O)c1ccccc1)c1ccccc1C(F)(F)F (stereo not given in full)	-16.5%
CCOC(=O)c1c(NC(=O)CSc2nnnn2C)sc(C)c1-c1ccc(C)cc1	-20.9%
CC(NC(=O)C(=O)NN=C1CCCCCC1)c1ccccc1 (stereo not given)	0.1%

Screens as filed in PubChem.

These rows are one share of the data; rates above refer to the full screens.
